Screening results: PubChem, several laboratories
B2AR ag: beta2AR agonists driving receptor internalization, primary screen, cell-based, FAP fluorogen, flow cytometry | Beta-2 adrenergic receptor (Homo sapiens), P07550 | Am2.2-beta2AR cells; reference of the scale not given here | response, % (concentration not given with the values) | 340,000 compounds, 0.43% hits;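 active = response above a set limit, near 3 SD of response in nonfluorescent compounds, cut at about 42% in these data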;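 also: stock transfer was 100 nL into about 11 µL; a reference agonist was the positive control; negative values mostly stem from fluorescent compounds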
HNF4A DNA FP: change in binding of human HNF4A to DNA, primary screen, biochemical, fluorescence polarization, FITC-DNA; Hepatocyte nuclear factor 4-alpha (Homo sapiens), P41235; 1 h; activity change, % at 10 µM; 360,000 compounds, 0.3% hits; AID 1224865, 2016; in the data active = activity change above about 30%, passing the limit was not always enough;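 also: controls were the assay level and a saturating level of protein; the project sought stronger binding though the title names inhibitors; some compounds called inactive have numbers as strong as hits; positive values seem to mean higher polarization but the record does not say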
FGF22 binding: binders of human FGF22 protein, primary screen, FGF22 synaptogenesis inhibitor project, biophysical, thermal shift, single point; Fibroblast growth factor 22 (Homo sapiens), Q9HCT0; recombinant FGF22 thermal shift, SYPRO orange fluorescence; percent of sucrose octasulfate shift, DMSO zero; 340,000 compounds, 1.5% hits; calls only at 9.99 µM;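 active = melting point raised past a set limit in the mean and every replicate; inconclusive = no clear call; three in four hits are not shown here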
Target sequence (Q9HCT0 whole entry, looked up): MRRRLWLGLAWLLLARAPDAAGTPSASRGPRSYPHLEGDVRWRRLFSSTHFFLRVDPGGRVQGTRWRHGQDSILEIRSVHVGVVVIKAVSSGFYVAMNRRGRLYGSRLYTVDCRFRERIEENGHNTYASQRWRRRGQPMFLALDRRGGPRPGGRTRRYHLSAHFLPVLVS
Ecoli growth: E. coli growth inhibition, primary screen, OD600; Escherichia coli growth, 23 h; stronger effect = lower value; OD600 absorbance (no concentration beside the values); 330,000 compounds, 0.21% hits; AID 1053175, 2014;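 active = OD600 absorbance below the run mean of sample wells minus 3.6 SD, in any replicate, cut at about 0.56 in these data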;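 also: stock transfer was 300 nL into about 60 µL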
UCH37 DUB inh: inhibitors of human UCH37 deubiquitinase, primary screen, biochemical, Ub-AMC cleavage, fluorescence; Ubiquitin carboxyl-terminal hydrolase isozyme L5 (Homo sapiens), Q9Y5K5; purified proteasome/UCH37; inhibition, % (no concentration beside the values); 330,000 compounds, 0.33% hits;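 active = mean of two replicates above 20%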;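 also: 0% = compound-free wells with enzyme and 100% = wells lacking proteasome; stock transfer was 100 nL into about 20 µL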
Target sequence (Q9Y5K5 whole entry, looked up): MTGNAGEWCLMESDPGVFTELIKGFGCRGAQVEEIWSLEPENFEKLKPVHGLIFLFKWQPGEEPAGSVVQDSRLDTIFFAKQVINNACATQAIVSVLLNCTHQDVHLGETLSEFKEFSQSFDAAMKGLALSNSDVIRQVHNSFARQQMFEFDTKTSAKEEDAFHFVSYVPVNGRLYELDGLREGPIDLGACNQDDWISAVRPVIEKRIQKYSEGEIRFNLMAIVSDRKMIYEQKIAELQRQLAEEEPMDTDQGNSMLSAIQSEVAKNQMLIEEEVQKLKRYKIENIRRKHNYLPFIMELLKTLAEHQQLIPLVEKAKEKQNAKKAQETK
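Material: Human UCH37 enzyme supplied as purified proteasome complex | Schedule: 30 min compound-proteasome preincubation then 25 min substrate reaction, room temperature | Detection: AMC fluorescence from Ub-AMC cleavage, excitation 355 nm, emission 460 nm | Benchmarks: Wells without proteasome as full block, compound-free enzyme plus substrate as uninhibited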
LANA-H2B inh: blockers of LANA interaction with H2A/H2B – biochemical, FP readout, HTS, primary screen | AID 2629, 2010 | 320,000 compounds, 0.6% hits | cell-free LANA-H2A/H2B peptide, fluorescence polarization | inhibition, % (no concentration beside the values) | Protein LANA1 (Human herpesvirus 8 type P (isolate GK18)), Q9QR71; in the data active = inhibition mostly above about 10%, no sharp cut-off; inactive = mostly below about 6.7%;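 also: stock transfer was 7.5 nL into about 10 µL; 0% = median of vehicle wells and 100% = median of positive control wells; one replicate is shown; the record names a cut of 25% in any replicate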
ALR inh: inhibitors of human ALR sulfhydryl oxidase, primary screen, biochemical, H2O2 detection, HRP-luminol luminescence, single point; FAD-linked sulfhydryl oxidase ALR (Homo sapiens), P55789; purified ALR, DTT oxidation; inhibition, % (test concentration not listed); 290,000 compounds, 3.8% hits;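 active = mean and each replicate at 75% or more; inconclusive = only one of the two met; inactive = neither met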;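 also: stock transfer was 7.5 nL into about 7.5 µL; 0% = neutral wells and 100% = wells with inactivated enzyme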
Target sequence (P55789 whole entry, looked up): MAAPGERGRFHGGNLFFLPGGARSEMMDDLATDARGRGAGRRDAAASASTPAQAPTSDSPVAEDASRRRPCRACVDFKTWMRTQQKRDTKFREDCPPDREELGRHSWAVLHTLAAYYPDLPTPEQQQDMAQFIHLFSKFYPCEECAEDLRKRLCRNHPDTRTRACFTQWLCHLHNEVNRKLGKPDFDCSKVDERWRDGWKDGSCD
Numbers without * were called inactive; i = inactive; ? = inconclusive; . = no result given; & = joins results of further samples; ! = not confirmed by another sample.

Sequence of screens: B2AR ag	Ecoli growth	FGF22 binding	LANA-H2B inh	ALR inh	HNF4A DNA FP	UCH37 DUB inh
- COc1ccccc1CN1CCNC(=O)C1CC(=O)N(C)CC1CCOCC1 (stereo unspecified)
    0	0.63	i	7.3	-15	1.5	-2.8
- CC(=O)NC(=S)Nc1ccc(-c2nc3ccc(C)cc3s2)cc1
    0	0.72	i	-8.3	1	13	-27
- COc1ccccc1-n1c(=S)[nH]c2c(sc(=S)n2-c2ccccc2)c1=O
    3	0.69	i	0.3	1	-3.2	7.2
- CC1CCC(C(C)C)C(OCC(O)CNC(C)(C)C)C1 (stereo unspecified)
    -6	0.66	i	4.5	-11	-0.2	1.6
- NC(=O)CC(NC(=O)c1ccccc1)c1ccc(N2CCC(Cc3ccccc3)CC2)c([N+](=O)[O-])c1 (stereo unspecified)
    0	0.71	i	3.8	-3	3.7	3.3
- COc1ccc(OC)c(Nc2nc3ccc(C)cc3n3cnnc23)c1
    3	0.7	i	1.6	-3	12	-102
- Cc1ccc(NC(=O)CSc2nnc(-c3ccc(S(=O)(=O)N4CCOCC4)cc3)n2C)cc1
    4	0.7	.	-3.1	.	2.4	0.7
- COc1cc(-c2noc(CCC(=O)NC3CCCC3)n2)cc(OC)c1OC
    -4	0.68	i	2.5	-6	-1.2	1.0
- COc1ccc([C@H]2CC(=O)C=C(c3ccc(OC)cc3OC)C2)cc1
    11	0.77	i	3.2	-3	3.7	5.5
- CC1CCCN(c2nc3nonc3nc2Nc2ccccc2F)C1 (stereo unspecified)
    4	0.71	i	-4.1	-2	-5.0	0.9
- CC1(C)CC(NC(=O)c2ccccn2)CC(C)(C)N1O
    -4	0.69	i	-4.5	-2	0.0	2.9
- CC(C)c1onc(C(=O)N(C)C2CCCCC2)c1[N+](=O)[O-]
    32	0.68	.	-0.9	-2	-0.8	3.8
- Cc1cccc(C)c1NC(=O)CNC(=O)c1ccc2ccccc2n1
    -5	0.69	i	2.3	-3	2.2	4.0
- O=c1c2ccccc2cnn1Cc1n[nH]c(=S)n1-c1ccccc1Cl
    5	0.7	i	4.0	84*	0.1	1.1
- O=C(c1ccc2c(c1)OCO2)N1CCC2(CC1)Oc1ccc(F)cc1C(=O)C21CC(c2cccnc2)=NO1 (stereo unspecified)
    -8	0.67	i	6.6	-4	-2.3	-0.1
- Cc1cc(S(=O)(=O)N2CCOCC2)ccc1OCC(=O)Nc1ccc(F)cc1F
    1	0.66	i	-0.3	-1	1.0	-1.1
- CN(C)c1ccc(/C=C2\C(=N)N3C(=NC2=O)Sc2cc(S(C)(=O)=O)ccc23)cc1
    .	0.69	.	6.8	-1	.	6.4
- O=C(Cn1c(=O)c2c(ncn2Cc2ccccc2)n(Cc2ccccc2)c1=O)N1CCc2ccccc21
    -5	0.67	i	2.2	2	3.8	5.9
- Cc1ccc(N2CC(=O)Nc3c(oc4nc(-c5ccccc5)cc(C)c34)C2=O)cc1
    -1	0.69	i	2.8	-4	3.1	-3.1
- N#CC1=C(N)N(c2ccccc2)C(c2ccccc2)C1(C#N)C#N (stereo unspecified)
    14	0.73	.	3.3	68	-1.7	-4.6
- Cc1nc2c(cnn2-c2ccccc2Cl)c(=O)n1-c1ccc(C(C)C)cc1
    5	0.67	.	1.2	-12	3.3	0.2
- COc1ccccc1-c1nc2n(n1)C(c1ccccc1Cl)C(C(N)=O)=C(C)N2 (stereo unspecified)
    0	0.74	i	2.9	5	0.3	0.4
- Cc1cccc(OCc2nnc(SCC(=O)N3c4ccccc4Sc4ccc(Cl)cc43)o2)c1
    -11	0.72	i	-21	7	0.4	5.4
- O=C(CSc1nnc(-c2cnccn2)n1Cc1ccco1)c1ccccc1
    -11	0.69	.	-2.5	87*	-0.4	1.5
- COCc1cc(C)nc(SCC(=O)Nc2ccc(N3CCOCC3)cc2)c1C#N
    -2	0.71	i	0.3	-8	-1.6	1.7
- COCCn1cnc2c1c(=O)n(Cc1ccc(C#N)cc1)c(=O)n2Cc1ccccc1
    1	0.69	i	1.1	1	-0.6	3.6
- CN=c1scc(-c2c[nH]c3ccccc23)n1C
    9	0.69	i	.	.	0.2	4.3
- C=CC(O)(C#CCN(CC)CC)c1ccccc1 (stereo unspecified)
    1	0.72	.	-0.9	-1	7.2	3.2
- O=S(=O)(Nc1ccc(-c2cn3cccnc3n2)cc1)c1ccccc1
    -3	0.66	i	-1.6	2	1.7	-116
- CC1(C)CC(=O)C=C(Nc2ccc(OCC(F)(F)C(F)F)cc2)C1
    -7	0.74	.	1.6	8	23	0.5

Next records follow:
Sequence of screens: B2AR ag	Ecoli growth	FGF22 binding	LANA-H2B inh	ALR inh	HNF4A DNA FP	UCH37 DUB inh
- Cc1cccc2sc(N(CCCN(C)C)C(=O)c3sc4ccccc4c3Cl)nc12
    2	0.7	.	4.2	2	-0.1	0.1
- CC(=O)OC1C=CCC2C(=O)c3cccc(O)c3C(O)C12 (stereo unspecified)
    -2	.	i	.	.	-1.5	.
- CC(OC(=O)c1cc(=O)c2ccccc2o1)C(=O)c1ccccc1 (stereo unspecified)
    6	0.68	i	5.7	.	4.4	3.1
- CC(C)COCC(CN(Cc1ccccc1)c1ccccc1)N1CCCC1 (stereo unspecified)
    22	0.63	i	-19	.	1.2	4.3
- CCN(CC)S(=O)(=O)c1cccc(NC(=O)c2cncc(Br)c2)c1
    -5	0.64	.	2.4	-7	-1.0	-0.6
- CCOc1ccc(CC(=O)Nc2c(C(=O)Nc3ccccc3)oc3ccccc23)cc1OCC
    9	0.76	.	1.8	-7	3.0	-124
- COc1cccc(OCc2cc(/C=N/NC(=O)c3ccn[nH]3)ccc2OC)c1
    -12	.	.	-2.5	?	2.4	.
- COc1cc(-c2nc(C(=O)NC3CCCCC3)cc3c2[nH]c2ccccc23)cc(OC)c1OC
    -13	0.78	i	-5.0	15	-2.8	-43
- CCOC(=O)NC(NC(=S)Nc1ccccc1[N+](=O)[O-])C(Cl)(Cl)Cl (stereo unspecified)
    4	0.69	.	-5.8	18	2.9	2.7
- C=Cc1c(C)c2cc3[nH]c(cc4nc(cc5nc(cc1[nH]2)C(C)=C5CCC(=O)O)C(CCC(=O)O)=C4C)c(C)c3C=C
    45*!	1	i	-2.2&-3.2	-6	-37&-84	47*!
- c1ccc(Nc2cc(-c3ccccc3)nc3ncnn23)cc1
    -5	0.67	i	-4.3	-7	5.3	-9.8
- Nc1c(C(=O)c2ccccc2)sc2c1c(=O)[nH]c(=O)n2-c1ccccc1
    5	0.64	.	-7.5	-1	1.2	-8.9
- O=C(NCCN1CCOCC1)C(=O)c1c[nH]c2ccccc12
    2	0.68	.	1.5	-24	-0.1	6.1
- COc1cc(/C=N/NC(=O)c2cc(C3CC3)[nH]n2)cc(OC)c1OC
    2	.	i	4.3	-1	-4.3	.
- CCC(=O)c1c[nH]c(C(=O)NCCCN2CCOCC2)c1
    11	0.75	.	2.4	-4	2.9	4.1
- O=C(/C=C/c1ccc(O)cc1)c1ccc(O)cc1O
    7	.	i	-7.8	70	-0.3	4.7
- CC(C)c1[nH]nc2c1C(c1ccco1)C(C#N)=C(N)O2 (stereo unspecified)
    5	0.71	i	2.0	.	-1.7	4.7
- N#Cc1ccccc1OCc1cn(CC(=O)c2ccc(O)cc2)nn1
    -4	.	i	.	.	-2.8	.
- Cc1ncoc1C(=O)N1CCCC(C(=O)c2cccc3ccccc23)C1 (stereo unspecified)
    5	0.68	i	7.7	-15	-0.3	3.7
- O=C(CCN1C(=O)c2ccccc2C1=O)N1CCN(C(=O)c2ccccc2)CC1
    5	0.75	.	7.3	-1	-1.5	-1.7
- COc1cccc(CC(=O)NN2C(=O)NC3(CCCCC3)C2=O)c1
    2	0.69	i	5.4	2	1.3	1.2
- O=C(c1cccc(Cl)c1)N1CCC2CC1c1cc(-c3ccc(F)cc3)ccc12 (stereo unspecified)
    14	.	i	.	.	2.9	.
- COCc1cc(=O)[nH]c(/N=C(\N)Nc2ccc(Cl)c(Cl)c2)n1
    1	.	i	-2.5	1	-2.9	.
- COc1ccc(C(=O)c2cc3cccc(OC)c3o2)cc1
    -6	0.69	i	1.9	1	3.7	1.2
- Cc1ccc(F)cc1NC(=O)N1CCCN(c2ccc(C(F)(F)F)cn2)CC1
    3	0.65	i	0.1	-5	0.8	0.6
- O=C(/C=C/c1ccc([N+](=O)[O-])cc1)NCCOc1ccc(F)cc1
    4	0.66	i	-6.2	-6	1.4	1.7
- COc1ccc(C2C(=O)N(CCc3ccccc3)CC(=O)N2C2CCCCC2)cc1 (stereo unspecified)
    -4	0.72	.	3.8	-7	5.1	5.2
- C=CCNC(=S)Nc1c(C(=O)OC)[nH]c2cc(OC)ccc12
    2	0.69	i	-3.3	14	1.1	2.4
- C#CCOCCOCCOCCNc1nc(N2CCN(C(=O)[C@H](CCCN=C(N)N)n3cc(C(N)[C@@H](C)CC)nn3)CC2)nc(N2CCN(C(=O)[C@H](CCC(=O)O)n3cc([C@@H](N)CO)nn3)CC2)n1 (stereo partly specified)
    4	0.68	i	-5.1	.	2.7	-0.2
- CCSc1nc2nc(C)cc(C)n2n1
    -9	0.74	.	-3.2	27	-4.6	4.6

Following part:
Sequence of screens: B2AR ag	Ecoli growth	FGF22 binding	LANA-H2B inh	ALR inh	HNF4A DNA FP	UCH37 DUB inh
- COc1ccc(OC)c2[nH]c(=O)c(CCNC(=O)c3ccc(Br)o3)cc12
    -10	0.62	.	1.2	-12	1.6	-3.6
- CC(C)c1ccccc1NC(=O)COC(=O)CCN1C(=O)/C(=C\C=C\c2ccccc2)SC1=S
    2	0.76	i	-4.1	9	9.6	6.8
- COc1ccc(Cl)c2sc(N3CCN(C(=O)c4ccco4)CC3)nc12
    8	0.68	i	0.9	-9	2.6	11
- CC12CN(C(=O)c3ccco3)CC(c3ccccc3)(CN(C(=O)c3ccco3)C1)C2=O
    0	0.71	.	2.8	2	-2.2	1.6
- COc1ccc2[nH]cc(S(=O)(=O)c3ccc(C)cc3)c2c1
    -3	0.65	i	-1.4	-7	-1.7	6.0
- COc1ccc(C(C)(C)C)cc1NC(=O)c1c(C)noc1C
    -18	0.67	.	5.2	0	-0.7	4.3
- Cc1cc(NS(=O)(=O)c2ccc(NC(=O)c3cc4c(=O)n5ccccc5nc4s3)cc2)nc(C)n1
    -15	0.7	i	.	.	-9.9	-90
- CCS(=O)(=O)c1ccc2oc(Nc3ccc(OC)c(OC)c3)nc2c1
    -3	0.66	i	0.2	-6	-0.2	4.8
- CCc1ccc(-c2cc3c(=O)n(CC(=O)NCCCN4CCN(CC)CC4)nc(C)n3n2)cc1
    14	0.7	i	-1.6	33	0.6	3.3
- O=C1CCCCCC1C1(O)C(=O)Nc2ccc(Br)cc21 (stereo unspecified)
    -3	0.68	.	-2.1	-6	0.8	1.9
- Nc1c(-c2ccccn2)cnn1-c1nc(-c2ccc(F)cc2)cs1
    0	.	i	2.0	-2	-1.9	.
- Cc1ccc(NC(=O)COC(=O)c2ccccc2F)cc1S(=O)(=O)N1CCCCC1
    -1	0.66	i	.	.	-1.8	2.7
- COc1ccc(CNC(=O)COC(=O)c2n[nH]c3ccccc23)cc1
    -4	0.71	.	0.0	-4	1.0	3.6
- Cc1ccc(S(=O)(=O)NCCNC(=O)CN2CCOCC2)cc1
    6	0.65	i	-4.3	-1	-2.0	2.9

Some of the compounds tested, so the mix of outcomes need not match the whole.
